GLA inh pH 4.5: blocks human alpha-galactosidase A at pH 4.5. AID 1467. P06280. purified enzyme, 4-MU-alpha-Gal fluorescence, pH 4.5. 230,000 tested, under 10 active. activity change, negative = inhibition, % at 105 µM; inconclusive = small, poorly fitted or top-dose-only inhibition, or a rising curve; inactive = flat fitted curve, though single readings scatter; no compound was filed as active;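 note: 0% = full activity with enzyme and -100% = basal without enzyme; dose as in the result columns while the protocol names 77 µM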
Rango-impB inh: prevents formation of the Rango-importin beta complex | hit rate 0.031% among 340,000 | Q14974 | Rango CFP/YFP FRET sensor + importin beta, 45 min | Potency, µM (series often up to 92.2 µM), without a hit: at the top dose inhibition of complex formation | AID 540263; active = rising FRET ratio curve, often small or poorly fitted; inconclusive = mostly compound fluorescence or quenching in the first reads; inactive = flat curves in all reads;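 note: potency is the fitted concentration of half-maximal effect; 0% = DMSO wells and 100% = buffer wells lacking importin beta; nearly all actives have a fitted effect of over 15% in size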
Target sequence (Q14974 whole entry, looked up): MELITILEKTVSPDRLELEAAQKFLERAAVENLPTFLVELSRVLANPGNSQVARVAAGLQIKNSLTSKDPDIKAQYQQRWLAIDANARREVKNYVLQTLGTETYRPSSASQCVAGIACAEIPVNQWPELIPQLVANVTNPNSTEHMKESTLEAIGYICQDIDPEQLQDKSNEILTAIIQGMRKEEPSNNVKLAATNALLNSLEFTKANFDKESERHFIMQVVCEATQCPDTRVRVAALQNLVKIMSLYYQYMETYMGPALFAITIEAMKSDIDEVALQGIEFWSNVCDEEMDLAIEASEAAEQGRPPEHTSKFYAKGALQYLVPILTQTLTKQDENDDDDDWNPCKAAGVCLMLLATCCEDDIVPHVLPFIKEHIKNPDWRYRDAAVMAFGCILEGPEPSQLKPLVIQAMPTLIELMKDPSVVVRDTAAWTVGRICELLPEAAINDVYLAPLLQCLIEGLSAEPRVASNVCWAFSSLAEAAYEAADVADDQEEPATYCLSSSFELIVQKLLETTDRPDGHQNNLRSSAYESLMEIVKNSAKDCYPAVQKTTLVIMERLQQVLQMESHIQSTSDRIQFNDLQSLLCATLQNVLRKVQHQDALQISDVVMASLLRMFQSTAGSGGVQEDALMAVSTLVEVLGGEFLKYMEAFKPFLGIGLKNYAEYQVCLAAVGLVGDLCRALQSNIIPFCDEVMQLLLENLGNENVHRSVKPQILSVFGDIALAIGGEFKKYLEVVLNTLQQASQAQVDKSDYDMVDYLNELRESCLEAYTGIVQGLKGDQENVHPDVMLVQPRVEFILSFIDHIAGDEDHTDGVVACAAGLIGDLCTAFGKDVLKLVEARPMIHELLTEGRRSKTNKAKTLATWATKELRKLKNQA
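Inhibition scored from the CFP 486 nm/YFP 530 nm FRET ratio 45 min after adding 0.125 microM importin beta to 50 nM Rango biosensor preincubated 5 min with compound (room temperature, PBS with DTT, Tween-20, BSA). No-importin wells as positive control.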
Rango release inh: prevents RanGTP from dissociating the Rango-importin beta complex; AID 540253; O95149+P62826; hit rate 0.071% among 340,000; Potency, µM (series often up to 46.1 µM), for the others: at the highest dose activity change, negative = inhibition; Biochemical FRET Rango-importin beta, RanGTP-induced dissociation; active means falling FRET ratio curve, often poorly fitted, with flat reads before Ran was added; inconclusive means other falling curves, or compound fluorescence or quenching; inactive means flat or rising ratio curve;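 note: potency is the fitted concentration of half-maximal effect; % of control where 0% means no effect; nearly all actives have a fitted effect of over 45% in size; -100% = wells without RanGTP and RCC1; the record marks most hits as doubtful in a second field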
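Rango (0.1 uM)–importin beta (0.25 uM) complex; RanGTP-RCC1 trigger; 45 min RT; CFP/YFP FRET read.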
miR-21 FLuc: miR-21 reporter, rising signal; AID 2288; Potency, µM (titrated, usually from 38.3 µM), for inactives: top-dose reporter change, positive = more light; HeLa miR-21 FLuc reporter, luciferase, 48 h; 340,000 tested, under 10 active; active = well fitted rising curve with a large enough effect; inconclusive = small, poorly fitted or top-dose-only effect; inactive = no such curve, though single readings can be large or run the other way;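 note: % of control where 0% means no effect; miR-21 action dims this reporter so a rising signal means less miR-21 action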
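Using DMEM plus 10% FBS, HeLa miR-21-FLuc cells are incubated with test compounds (final up to about 40uM) for 48 hours; firefly luciferase signal is then imaged following reagent-mediated lysis.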
* marks the source's active call; other numbers are inactive results; & = joins results of further samples; [ ] = dose if it differs, or a comment. The list is partial, so the mix of outcomes need not match the whole.

For CCOC(=O)c1cc(C(=O)Nc2sc3c(c2C#N)CCCC3)nn1C the results were Rango-impB inh -0.9%, Rango release inh 2% and miR-21 FLuc -8%.
Screening CN(CC(=O)Nc1ccc(F)c(F)c1F)C(=O)CCCc1nc2ccccc2c(=O)[nH]1 returned Rango-impB inh -3.7% and Rango release inh 12%.
For Cc1nc(CC(=O)N/N=C/c2ccc(OCC(=O)O)cc2)cs1 the results were GLA inh pH 4.5 -1, Rango-impB inh -3.5%, Rango release inh inconclusive and miR-21 FLuc 1%.
Screening CCN(CC)C(=O)C(Sc1ccccc1)c1ccccc1 (stereo not given) returned GLA inh pH 4.5 -2, Rango-impB inh inconclusive, Rango release inh 20% and miR-21 FLuc -2%.
Screening Cc1ccccc1CN1CCN(C(C)C(=O)NCc2ccccc2)CC1 (stereo not given) returned Rango-impB inh 0.4%, Rango release inh 11% and miR-21 FLuc -3%.
For CCOC(=O)CC(NC(C)=O)c1ccc([N+](=O)[O-])cc1 (stereo not given) the results were GLA inh pH 4.5 -1, Rango-impB inh -1.6%, Rango release inh 1% and miR-21 FLuc 2%.
Screening CC1C(=O)Nc2ccc(S(=O)(=O)NCc3ccc(Cl)cc3)cc2NC1=O (stereo not given) returned Rango-impB inh 0.9%, Rango release inh -16% and miR-21 FLuc 10%.
CC1(C)ON(C2CCCCC2)[C@H]2c3nc4ccccc4n3C[C@H]21 was read as Rango-impB inh 1.2%, Rango release inh 2% and miR-21 FLuc -1%.
CCC(C)[C@H]1CNCCN1CCCc1cc(OC)c(OC)c(OC)c1 (stereo not given in full) was read as Rango-impB inh -1.2% and Rango release inh 7%.
Screening CCn1c(SC(=O)NC2CCCCC2)nnc1-c1cccs1 returned GLA inh pH 4.5 4, Rango-impB inh -4.8%, Rango release inh -4% and miR-21 FLuc -16%.

For reference, part of the list above:
CCC(C)[C@H]1CNCCN1CCCc1cc(OC)c(OC)c(OC)c1 (stereo not given in full) was read as Rango-impB inh -1.2% and Rango release inh 7%.
Screening CCn1c(SC(=O)NC2CCCCC2)nnc1-c1cccs1 returned GLA inh pH 4.5 4, Rango-impB inh -4.8%, Rango release inh -4% and miR-21 FLuc -16%.

The list goes on:
`CC(=O)CCc1c(C)c2cc(C)ccc2[nH]c1=O` gave GLA inh pH 4.5 -10, Rango-impB inh 1.5%, Rango release inh -5% and miR-21 FLuc -45%.
`O=C(CCSCCC(=O)NCc1cccs1)NCc1cccs1` gave GLA inh pH 4.5 5, Rango-impB inh -0.1%, Rango release inh 8% and miR-21 FLuc -7%.
Cc1noc(C)c1NC(=O)Nc1cccc2c1O[C@H](CN(C)S(=O)(=O)c1ccccc1)[C@@H](C)CN([C@H](C)CO)C2=O was read as Rango-impB inh -2.7% and Rango release inh -3%.
CSCC(=O)N1CCC(n2nccc2NC(=O)c2ccc3c(c2)OCO3)CC1 was read as Rango-impB inh 4.5%, Rango release inh -6% and miR-21 FLuc -41%.
C=CCSc1nnc2c(n1)-c1cccc3cccc-2c13 was read as Rango-impB inh 0.1% and Rango release inh -2%.
COc1ccc(NC(=O)c2cc3c(-c4ccc(OC)c(OC)c4)nn(C)c3s2)cc1OC was read as GLA inh pH 4.5 -11, Rango-impB inh 0.3%, Rango release inh 5% and miR-21 FLuc 9%.
`CCOC(=O)CSc1nc(-c2ccccc2)nc2ccc(F)cc12` gave GLA inh pH 4.5 -6, Rango-impB inh 0.7%, Rango release inh 23% and miR-21 FLuc -3%.
For CCOC(=O)c1nnn(CC(=O)NC(=O)Nc2ccccc2)c1C(=O)OCC the results were GLA inh pH 4.5 3[21.1 µM], Rango-impB inh -4.2%, Rango release inh 0% and miR-21 FLuc 1%.
Screening CCn1c(=O)c([N+](=O)[O-])c(NCCc2ccccc2)c2ccccc21 returned GLA inh pH 4.5 -3, Rango-impB inh 4.8%, Rango release inh -4% and miR-21 FLuc 10%.
Screening CN(C)C(=O)c1ccc(NC(=O)c2sccc2-c2ccccc2)cc1 returned Rango-impB inh 0.3%, Rango release inh -5% and miR-21 FLuc -3%.
O=C(O)CCc1ccc(-c2ccc(Br)cc2)n1NC(=O)c1ccc([N+](=O)[O-])cc1 was read as GLA inh pH 4.5 -2, Rango-impB inh 0.2%, Rango release inh -1% and miR-21 FLuc -3%.
CCS(=O)(=O)N1CCN(Cc2ccccc2OC)CC1 was read as GLA inh pH 4.5 -3, Rango-impB inh -0.2%, Rango release inh 0% and miR-21 FLuc -4%.
For COc1ccc(C(=O)COC(=O)COc2ccc(C)c(C)c2)cc1 the results were GLA inh pH 4.5 -5, Rango-impB inh 4.7%, Rango release inh 5% and miR-21 FLuc -6%.
Screening Cc1nnc(SCC(=O)NC(C)(C)C)n1NCc1cccc(Br)c1 returned Rango-impB inh 2.0%, Rango release inh 0% and miR-21 FLuc -6%.
CC1=NN(C(N)=S)C(=O)C1N=Nc1ccccc1O (stereo not given) was read as Rango-impB inh -0.4%, Rango release inh -8% and miR-21 FLuc -14%.
For Cc1nc(-c2ccc(Cl)cc2)sc1C1(C)CC(c2ccc(C#N)cc2)=NO1 (stereo not given) the results were GLA inh pH 4.5 -8, Rango-impB inh 4.0%, Rango release inh 2% and miR-21 FLuc -3%.
Screening Cc1onc(-c2ccccc2)c1C(=O)N=C(N)c1ccc(C(F)(F)F)cc1 returned GLA inh pH 4.5 -5, Rango-impB inh -2.5%, Rango release inh -3% and miR-21 FLuc 1%.
`Cc1cc2cc(C)c(NCCNC(=O)c3ccccc3Cl)nc2cc1C` gave GLA inh pH 4.5 -2, Rango-impB inh -0.5%, Rango release inh -9% and miR-21 FLuc -15%.
N#Cc1ccc(OCC(O)CS(=O)(=O)c2ccccc2)cc1 (stereo not given) was read as GLA inh pH 4.5 8, Rango-impB inh 0.5%, Rango release inh -15% and miR-21 FLuc -2%.
For C=CCn1c(C)csc1=Nc1ccccc1C the results were GLA inh pH 4.5 10, Rango-impB inh 6.1%, Rango release inh 0% and miR-21 FLuc -32%.

Part of the list above in order of count of non-hydrogen atoms, ascending.
For C=CCn1c(C)csc1=Nc1ccccc1C the results were GLA inh pH 4.5 10, Rango-impB inh 6.1%, Rango release inh 0% and miR-21 FLuc -32%.
`CC(=O)CCc1c(C)c2cc(C)ccc2[nH]c1=O` gave GLA inh pH 4.5 -10, Rango-impB inh 1.5%, Rango release inh -5% and miR-21 FLuc -45%.
For CCOC(=O)CC(NC(C)=O)c1ccc([N+](=O)[O-])cc1 (stereo not given) the results were GLA inh pH 4.5 -1, Rango-impB inh -1.6%, Rango release inh 1% and miR-21 FLuc 2%.
CSCC(=O)N1CCC(n2nccc2NC(=O)c2ccc3c(c2)OCO3)CC1 was read as Rango-impB inh 4.5%, Rango release inh -6% and miR-21 FLuc -41%.
COc1ccc(NC(=O)c2cc3c(-c4ccc(OC)c(OC)c4)nn(C)c3s2)cc1OC was read as GLA inh pH 4.5 -11, Rango-impB inh 0.3%, Rango release inh 5% and miR-21 FLuc 9%.

More entries:
Screening Cc1cccc(N2CCN(C(=O)C3CCN(S(=O)(=O)c4cnc[nH]4)CC3)CC2)c1C returned GLA inh pH 4.5 -2, Rango-impB inh 3.1%, Rango release inh -9% and miR-21 FLuc -4%.
For Cc1ccc(/C=N/NC(=O)Cc2c[nH]c3ccccc23)c(C)c1 the results were GLA inh pH 4.5 -2, Rango-impB inh inconclusive, Rango release inh -17% and miR-21 FLuc 0%.
`CC1CN(Cc2ccc(C#N)cc2Cl)CC(C)O1` (stereo not given) gave GLA inh pH 4.5 -2, Rango-impB inh -0.9%, Rango release inh -9% and miR-21 FLuc -6%.
Nn1c(COc2ccccc2F)nnc1SCC(=O)NC1CC1 was read as Rango-impB inh inconclusive and Rango release inh 1%.
For CC(=O)Nc1ncc(Cc2ccc(Cl)cc2Cl)s1 the results were GLA inh pH 4.5 8, Rango-impB inh 0.0%, Rango release inh 5% and miR-21 FLuc -14%.
COc1ccc([C@H]2CC(=O)C=C(c3ccc(-c4ccccc4)c(F)c3)C2)cc1 was read as Rango-impB inh -2.4% and Rango release inh 11%.
Screening Cc1cc(C(=O)O)cc(S(=O)(=O)Nc2c(C)nn(C)c2C)c1C returned Rango-impB inh -1.3% and Rango release inh 10%.
For COc1cccc(C=NN2CCCCCC2)c1OC the results were Rango-impB inh -1.0% and Rango release inh -16%.
`CCC(=O)Nc1ccc(SC#N)cc1C` gave GLA inh pH 4.5 7, Rango-impB inh -2.6%, Rango release inh 22% and miR-21 FLuc 20%.
`COc1ccc(CNC(=O)COc2ccc([N+](=O)[O-])cc2)cc1` gave GLA inh pH 4.5 -2, Rango-impB inh -2.7%, Rango release inh 40% and miR-21 FLuc -9%.
Screening COc1ccc(Cc2nnc(SCC(=O)c3ccc(OC)cc3)o2)cc1 returned GLA inh pH 4.5 -1, Rango-impB inh 4.4%, Rango release inh -13% and miR-21 FLuc -3%.
For COC(=O)COc1ccc2oc(=O)cc(-c3cc4ccccc4o3)c2c1 the results were Rango-impB inh -0.1%, Rango release inh -12% and miR-21 FLuc 5%.
For CCOC(=O)c1c(C)[nH]c(C=Nc2ccccc2)c1O the results were GLA inh pH 4.5 -8 and miR-21 FLuc -11%.
For C/C(Cn1cnc([N+](=O)[O-])n1)=N\NC(=O)c1ccc(O)cc1O the results were GLA inh pH 4.5 2, Rango-impB inh -3.1%, Rango release inh -2% and miR-21 FLuc -4%.
For COc1ccc(O)c(C2=Nc3ccccc3N=C(c3cccs3)C2)c1 the results were GLA inh pH 4.5 -3, Rango-impB inh -3.6%, Rango release inh -25% and miR-21 FLuc 0%.
Screening CCCCN(C)C(=O)C1CCC(CNS(=O)(=O)c2ccc3c(c2)CC(C)N3C(C)=O)CC1 (stereo not given) returned Rango-impB inh 0.0%, Rango release inh -8% and miR-21 FLuc 10%&11%.
For Cc1nnc(SC(C)C(=O)Nc2ccc(S(=O)(=O)N3CCCCCC3)cc2)s1 (stereo not given) the results were GLA inh pH 4.5 -4, Rango-impB inh 2.6%, Rango release inh 11% and miR-21 FLuc -8%.
Cc1cccc(NC(=O)C(=O)NCCc2c[nH]c3ccccc23)c1C was read as GLA inh pH 4.5 -5, Rango-impB inh -0.6%, Rango release inh 34% and miR-21 FLuc -6%.
For CC(C)CCCC(C)CCOC(=O)CN1CCCC1 (stereo not given) the results were GLA inh pH 4.5 -1, Rango-impB inh -1.3%, Rango release inh -7% and miR-21 FLuc -6%.
CS(=O)(=O)c1ccc(NC(=O)C2CC(=O)N(c3ccc4c(c3)OCCO4)C2)cc1 (stereo not given) was read as Rango-impB inh -6.3% and Rango release inh 1%.
`Cc1cc(=O)[nH]c(SCC(=O)N2CCC(Cc3ccccc3)CC2)n1` gave GLA inh pH 4.5 -3, Rango-impB inh -0.7%, Rango release inh 16% and miR-21 FLuc -9%.
COc1cccc(N(C(=O)Cc2cccs2)C(C(=O)NC2CCCC2)c2ccncc2)c1 (stereo not given) was read as Rango-impB inh -0.3%, Rango release inh 6% and miR-21 FLuc -17%.
For COCCN1C(=O)N[C@@H](c2cccc(F)c2)C(C(=O)OC)=C1C the results were GLA inh pH 4.5 4&1, Rango-impB inh inconclusive, Rango release inh -21% and miR-21 FLuc 0%.
O=C(CSCc1ccc([N+](=O)[O-])cc1)Nc1ccc(S(=O)(=O)N2CCCCCC2)cc1 was read as GLA inh pH 4.5 -3, Rango-impB inh 0.9%, Rango release inh 11% and miR-21 FLuc -9%.
`C=CCN(C(=O)CCC(=O)O)C1CC(=O)N(c2ccc(OC)cc2)C1=O` (stereo not given) gave GLA inh pH 4.5 -6, Rango-impB inh -2.5%, Rango release inh 3% and miR-21 FLuc -3%.
Screening Cc1ccc(OCCCC(=O)N2CCOCC2)cc1 returned GLA inh pH 4.5 -21, Rango-impB inh -2.0%, Rango release inh -18% and miR-21 FLuc -27%.
For CCOC(=O)N1CCN(Cc2nc(-c3cccc(Cl)c3)no2)CC1 the results were GLA inh pH 4.5 -15, Rango-impB inh -0.8%, Rango release inh 14% and miR-21 FLuc -10%.
COc1ccccc1-c1cc(C(=O)N2CCN(S(=O)(=O)c3ccc(C)cc3)CC2)[nH]n1 was read as Rango-impB inh inconclusive, Rango release inh -4% and miR-21 FLuc 2%.
Screening CC1=C2C(CCS2(=O)=O)CC2(C1)C(=O)OC(C)(C)OC2=O (stereo not given) returned GLA inh pH 4.5 2, Rango-impB inh 1.1%, Rango release inh 9% and miR-21 FLuc -2%.
